Compound activity from PubChem.
HSV replic up: enhancers of HSV replication in host cells, fold increase, host cell viability; HSV replication augmentation in cells; 0.005% of 220,000 active; maximum fold increase;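 active = peak rise of 1.5-fold or more in the series; tested in PC3 cells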;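 also: first round at 10 µM; read as green reporter fluorescence; hits show the peak of a series up to 25 µM; 1 = signal of infected wells without compound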
GALR2 ag: GALR2 receptor agonists, primary screen, cell-based | Galanin receptor type 2 (Homo sapiens), O43603 | GALR2-expressing cells, agonist activation read-out | activation, %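 (tested at 5 µM)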 | 0.48% of 140,000 active;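 active = above mean plus 3 SD of all compounds, about 5% in these data, not always enough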;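 also: 0% = vehicle buffer wells and 100% = reference agonist at full effect; tested in CHO reporter cells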
RGS16-Gao: modulators of RGS16 binding to Galphao, primary screen, biochemical, human proteins, multiplexed bead flow cytometry | Regulator of G-protein signaling 16 (Homo sapiens) + Guanine nucleotide-binding protein … | bead-based flow cytometry RGS16-Galphao binding, fluorescence; actives lie on both sides | binding response (% of control), % at 10 µM | 0.38% of 220,000 active | AID 1441, 2008;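 active = below 25% or above 175%, edge rows of some plates excepted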;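 also: Galphao activated by GDP with aluminum fluoride before binding; 100% = wells without compound and 0% = beads without RGS; some results beyond the cut were filed as inactive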
PKD1 kinase inh: inhibitors of human PKD1 kinase, biochemical, fluorescence polarization. 0.056% of 200,000 active. inhibition, %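 (about 10 µM by stock and volumes)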. PKD1 kinase fluorescence polarization assay. Serine/threonine-protein kinase D1 (Homo sapiens), Q15139;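 active = inhibition of 50% or more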;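 also: controls were vehicle for no effect and a reference inhibitor for full effect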
Target sequence (Q15139 whole entry, looked up): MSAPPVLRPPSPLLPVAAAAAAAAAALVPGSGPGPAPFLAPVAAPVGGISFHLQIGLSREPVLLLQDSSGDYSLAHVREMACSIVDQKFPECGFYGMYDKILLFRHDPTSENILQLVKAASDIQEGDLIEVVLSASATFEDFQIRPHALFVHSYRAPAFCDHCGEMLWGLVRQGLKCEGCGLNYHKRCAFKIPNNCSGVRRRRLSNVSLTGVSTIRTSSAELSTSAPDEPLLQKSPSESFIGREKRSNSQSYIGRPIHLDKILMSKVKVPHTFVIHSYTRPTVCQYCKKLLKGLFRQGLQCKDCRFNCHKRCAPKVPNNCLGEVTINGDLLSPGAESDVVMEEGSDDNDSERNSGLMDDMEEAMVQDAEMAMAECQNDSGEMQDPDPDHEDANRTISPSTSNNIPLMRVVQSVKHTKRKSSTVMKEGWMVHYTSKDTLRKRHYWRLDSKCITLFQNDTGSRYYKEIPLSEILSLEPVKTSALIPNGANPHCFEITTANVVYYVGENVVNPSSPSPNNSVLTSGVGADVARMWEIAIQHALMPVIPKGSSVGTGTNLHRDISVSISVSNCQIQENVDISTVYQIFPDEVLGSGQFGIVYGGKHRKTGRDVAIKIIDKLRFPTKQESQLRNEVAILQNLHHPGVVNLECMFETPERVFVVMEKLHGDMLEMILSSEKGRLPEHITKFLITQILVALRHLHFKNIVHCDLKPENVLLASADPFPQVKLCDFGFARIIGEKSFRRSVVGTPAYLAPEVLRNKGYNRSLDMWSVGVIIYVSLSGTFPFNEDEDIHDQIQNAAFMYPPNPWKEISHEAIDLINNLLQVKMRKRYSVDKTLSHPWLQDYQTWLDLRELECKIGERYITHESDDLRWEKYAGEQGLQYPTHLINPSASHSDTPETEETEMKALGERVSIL
Insulin prom inh: inhibitors of insulin promoter-driven GFP, primary screen, imaging, TRM-6 cells (human fetal islet line), eGFP reporter, cell count. reporter expression induced with tamoxifen. inhibition, % at 2 µM. 0.9% of 130,000 active;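 active = inhibition above the mean plus 3 SD, with well images judged a real hit on visual review, cut at about 60% in these data, passing the limit was not always enough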
Insulin prom inh cell count: recorded beside Insulin prom inh, whose call it bears; normalized cell count, %; measured here: cell count, toxicity; reference of the scale not given here;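 cells exposed to compound for 48 h; stained nuclei by imaging scaled within each plate; lower means fewer cells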
HSV replic up primary fold: also measured in HSV replic up; calls as there; fold increase; compound at 10 µM; measured here: primary screen fold increase 10 uM; tested in PC3 cells;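 GFP signal in the first replicate; 1 = infected wells without compound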
Numbers without * were called inactive; i = inactive; x = no result given.

SMILES	HSV replic up	HSV replic up primary fold	GALR2 ag	RGS16-Gao	PKD1 kinase inh	Insulin prom inh	Insulin prom inh cell count
CC(=O)Nc1ccc(NC(=O)c2sc3nc4c(c(-c5ccc(C)cc5)c3c2N)CCC4)cc1	i	0.63	2.9	119	0	x	x
CC(C)C(=O)c1cc2c(cc1NC(=O)c1ccccc1)OCCO2	i	0.98	-0.8	99	-2	89*	125*
CNCCCOc1cccc(OC(C)C)c1	x	x	-0.3	142	-3	-41	108
NS(=O)(=O)c1ccc(NC(=O)COC(=O)/C=C/c2ccc([N+](=O)[O-])cc2)cc1	i	0.76	x	107	3	x	x
CCCCCOC(=O)C1=C(C)Nc2nnnn2C1c1ccccc1Cl (configuration not stated)	i	0.99	3.3	100	-9	12	57
Cc1ccc(NC(=O)CSC2=C(C#N)C(c3ccco3)C3=C(CCCC3=O)N2)cc1 (configuration not stated)	x	x	-0.8	108	-7	x	x
O=C(CCNc1cccc(Cl)c1)c1cccs1	i	0.87	-2.3	102	5	3	104
CN(Cc1nc(-c2ccncc2)no1)S(=O)(=O)c1ccc(Cl)cc1	i	0.87	-3.9	100	-6	-4	98
O=C(O)c1ccc(CNc2ccccc2C(=O)O)cc1	i	0.88	-0.2	100	3	9	96
Nc1c(-c2ccc(Cl)cc2)cnn1-c1cccc(C(F)(F)F)c1	i	1	0.3	99	-4	48	161
CC(C)c1nnc(SCC(=O)N2CCN(C(=O)c3ccco3)CC2)n1N	i	0.95	x	98	4	22	87
O=C(OCC(=O)N1CCN(C(=O)c2ccco2)CC1)c1ccccc1	i	1.1	x	103	-5	x	x
Cc1ccc2cc(C#N)c(NCCNC(=S)NCCCN3CCOCC3)nc2c1	i	0.97	x	112	-4	-114	72
O=C(NCc1nc2ccccc2[nH]1)c1ccc(S(=O)(=O)N2CCOCC2)cc1	i	1.1	-1.4	121	-25	-7	92
CC(O)CNCCCOc1cccc(Oc2ccccc2)c1 (configuration not stated)	i	0.67	x	100	-6	x	x
C=CCn1c(COc2cccc(C)c2)nnc1SCn1nnc2ccccc2c1=O	i	0.89	-1.1	107	-4	-27	119
O=C(CNC(=O)c1ccccc1Br)N/N=C/c1ccc(O)cc1	i	1	x	101	-7	x	x
Cc1ccccc1Cn1cc(NC(=O)CSc2nc3c(c(C(F)(F)F)n2)CCc2ccccc2-3)cn1	i	0.98	0.9	112	-5	-29	49
Cc1cc(C)n(C(=O)COc2c(C)cccc2C)n1	i	1	-0.7	294	4	47	75
Cc1nc(-c2ccccn2)nc(SCC(=O)c2ccccc2)c1Cl	i	0.9	x	94	x	x	x

Single entries from the entries so far:
O=C(CNC(=O)c1ccccc1Br)N/N=C/c1ccc(O)cc1 in RGS16-Gao reads 101
Cc1nc(-c2ccccn2)nc(SCC(=O)c2ccccc2)c1Cl in HSV replic up primary fold reads 0.9
Cc1cc(C)n(C(=O)COc2c(C)cccc2C)n1 in HSV replic up primary fold reads 1
CC(C)c1nnc(SCC(=O)N2CCN(C(=O)c3ccco3)CC2)n1N in PKD1 kinase inh reads 4
CCCCCOC(=O)C1=C(C)Nc2nnnn2C1c1ccccc1Cl (configuration not stated) in RGS16-Gao reads 100
O=C(CCNc1cccc(Cl)c1)c1cccs1 in Insulin prom inh cell count reads 104

Later entries.
SMILES	HSV replic up	HSV replic up primary fold	GALR2 ag	RGS16-Gao	PKD1 kinase inh	Insulin prom inh	Insulin prom inh cell count
N#Cc1nc(-c2ccc(OCc3ccc(Cl)cc3)cc2)oc1NCc1cccnc1	i	0.89	-2.9	79	-5	-8	103
Cc1ccc(/C=C/C(=O)O)cc1S(=O)(=O)Nc1ccccc1C(=O)O	i	0.99	x	99	0	x	x
C#CCNC(=O)C1=C[C@H](c2coc3ccccc3c2=O)C[C@H](OCCCCO)O1	i	0.86	x	100	3	x	x
C#CCOCCOCCOCCNc1nc(N2CCN(C(=O)[C@H](CCCCN)n3cc([C@@H](N)C(C)CC)nn3)CC2)nc(N2CCN(C(=O)[C@H](CCCCN)n3cc([C@@H](N)CO)nn3)CC2)n1 (some centres not stated)	x	x	x	88	2	x	x
CCCC(=O)Nc1nnc(CC(=O)OCC)s1	i	0.84	-2.4	103	-3	28	108
O=C(Nc1nnc(-c2ccc(F)cc2)s1)C1CCN(S(=O)(=O)c2ccc(Cl)cc2)CC1	i	1.1	-0.9	65	2	x	x
CCN(CC)C(=S)Oc1c(Cl)cccc1Cl	i	0.93	x	100	x	x	x
Cc1c(C=O)c2ccccn2c1C(=O)c1cccc([N+](=O)[O-])c1	i	0.99	x	76	4	-85	70
Cc1cc(C)c(S(=O)(=O)n2c([N+](=O)[O-])cnc2C)c(C)c1	i	1	0.2	93	-1	42	119
Cc1ccccc1OCC(=O)NC(Cc1c[nH]c2ccccc12)C(=O)O (configuration not stated)	i	1	x	82	2	x	x
O=C(O)c1nc(-c2ccccc2)n(-c2cccc(C(F)(F)F)c2)n1	i	0.85	x	106	-6	48	75
COc1cccc2cc(C(=O)Nc3ccc(S(=O)(=O)NCC4CCCO4)cc3)c(=O)oc12 (configuration not stated)	i	0.9	x	101	x	x	x
COc1ccc(Cl)cc1NC(=O)C(C)NC(c1ccccc1)c1ccccc1 (configuration not stated)	i	1.2	-1.0	101	-2	x	x
COC(=O)c1nc(NC(=O)C(C)(C)C)n[nH]1	i	1	-1.6	97	5	48	95
CN(C)S(=O)(=O)c1ccc(Cl)c(NC(=O)COC(=O)c2ccc3c(c2)NC(=O)CS3)c1	i	1.1	x	99	x	x	x
Cc1oc(-c2ccccc2F)nc1CS(=O)(=O)CC(=O)N1CCN(c2ccccc2)CC1	i	0.86	-0.9	97	-14	x	x
Cc1ccc(-c2noc(-c3ccccc3Br)n2)cc1	i	0.96	-3.5	118	-5	3	94
CN=c1sc2ccccc2n1CC(O)COc1ccccc1 (configuration not stated)	i	1.1	-1.7	99	-1	x	x
CCc1ccc(-c2csc(NC(=O)C3CC(=O)N(c4ccc5c(c4)OCCO5)C3)n2)cc1 (configuration not stated)	i	0.69	-1.0	86	-7	48	91
CSCCC1NC(=O)NC1=O (configuration not stated)	i	0.96	x	102	x	x	x
CC12CCC(C(=O)N/N=C/c3ccc(O)cc3O)(OC1=O)C2(C)C (configuration not stated)	i	0.98	x	98	x	x	x
CCOc1ccccc1/C=C(/NC(=O)c1ccccc1)C(=O)NCC(=O)O	i	1.1	-0.8	91	-5	26	81
CSCCNC(C)=O	x	x	-3.3	102	-6	-17	134
Cc1ccc(-c2nnc(Nc3ccc(CC(N)=O)cc3)c3ccccc23)cc1S(=O)(=O)NCC1CCCO1 (configuration not stated)	i	0.86	x	100	x	x	x
Cc1ccc(S(=O)(=O)N2CCN(CC(=O)NC(=O)NCc3ccccc3)CC2)cc1C	i	1.1	-1.7	98	-5	-22	88
O=C(O)c1cnn(-c2ccccc2)c1C(F)(F)F	i	0.91	x	106	-1	x	x
CCOC(=O)c1[nH]c(C)c(C(=O)Nc2ccc3c(c2)CCC3)c1C	i	0.89	0.0	33	0	x	x
O=C(COc1ccc(Cl)cc1)NCc1nnc(SCC(=O)Nc2ccccc2)o1	i	0.95	0.1	86	-3	-25	101
O=C(Nc1cccc(Cl)c1N1CCCC1)c1cccc(-c2cc3ccccc3oc2=O)c1	i	0.94	1.0	106	2	51	136
O=C(CN1CCN(c2ccc(F)cc2)CC1)Nc1ccccc1[N+](=O)[O-]	i	0.98	x	117	0	23	121
O=C(C1CCCCC1)N1CCN(c2ncccn2)CC1	i	0.94	-1.4	142	-5	35	98
O=C(CCN1CCN(CC(=O)Nc2ccccc2Cl)CC1)Nc1ccccc1F	i	0.82	-2.6	100	-5	64	61
O=C(c1ccc(S(=O)(=O)NCC2CCCO2)cc1)N1CCN(c2ccccc2F)CC1 (configuration not stated)	i	1	x	104	1	-21	80
CN(Cc1cc2ccccc2[nH]c1=O)S(=O)(=O)c1ccccc1	i	0.79	-2.8	99	-6	-20	107
N#Cc1cn(OCc2ccccc2)c(=O)[nH]c1=O	i	1	-0.4	107	-8	25	118
Cc1c(C(=O)N2CC3(CC(c4cccc(NC(=O)CC(c5ccccc5)c5ccccc5)c4)=NO3)C[C@@H]2C(N)=O)cc([N+](=O)[O-])cc1[N+](=O)[O-] (some centres not stated)	i	0.7	x	101	x	x	x
CSc1cccc(NC(N)=S)c1	i	1.4	x	107	x	x	x
C=CCn1c(NCc2ccccc2)nc2ccccc21	i	0.8	-1.1	106	-8	x	x
CCOC(=O)C1CCN(C(=O)Cn2cc(C(=O)C3CC3)c3ccccc32)CC1	i	1	-1.9	101	1	54	109
O=C(Cn1cc(C(=O)c2cccs2)c2ccccc21)NCC1CCCO1 (configuration not stated)	i	1.1	-2.6	99	-1	-36	124

Single records, as listed above. Order of screens: HSV replic up | HSV replic up primary fold | GALR2 ag | RGS16-Gao | PKD1 kinase inh | Insulin prom inh | Insulin prom inh cell count
`N#Cc1cn(OCc2ccccc2)c(=O)[nH]c1=O` across the screens: i | 1 | -0.4 | 107 | -8 | 25 | 118
`O=C(c1ccc(S(=O)(=O)NCC2CCCO2)cc1)N1CCN(c2ccccc2F)CC1` (configuration not stated) across the screens: i | 1 | x | 104 | 1 | -21 | 80
`Cc1c(C(=O)N2CC3(CC(c4cccc(NC(=O)CC(c5ccccc5)c5ccccc5)c4)=NO3)C[C@@H]2C(N)=O)cc([N+](=O)[O-])cc1[N+](=O)[O-]` (some centres not stated) across the screens: i | 0.7 | x | 101 | x | x | x

Carrying on.
SMILES	HSV replic up	HSV replic up primary fold	GALR2 ag	RGS16-Gao	PKD1 kinase inh	Insulin prom inh	Insulin prom inh cell count
COc1ccc(C2c3c(oc4ccc(Cl)cc4c3=O)C(=O)N2Cc2ccco2)cc1OC (configuration not stated)	i	0.92	21*	115	-3	x	x
Cc1noc(C)c1CN1C(=O)NC2(CCCCCCC2)C1=O	i	0.95	0.1	107	-1	4	63
CCNC(=O)CCSc1nc2cc(Cl)ccc2o1	i	1	-2.3	36	-1	6	138
O=C(NCCN1C(=O)S/C(=C\c2ccccc2F)C1=O)C1CCN(S(=O)(=O)c2cccs2)CC1	i	0.79	-0.4	105	-2	-45	104
CN(C)CCOC(=O)C12CC3(C)CC(C)(CC(C)(C3)C1)C2	i	0.97	-2.9	100	-7	-93	127
O=C(NN1CCCCC1)c1ccc(COc2ccc(Cl)cc2)cc1	i	0.97	x	100	-6	38	96
O=C(/C=C/c1ccc(Cl)cc1Cl)Nc1cccc(S(=O)(=O)NC2=NCCCCC2)c1	i	0.94	-0.4	105	-14	0	112
O=C(CSc1nccn1-c1ccc(Cl)cc1)NCc1ccc2c(c1)OCO2	i	1	-4.6	117	-17	x	x
Cc1ccc(S(=O)(=O)NCCC(=O)Nc2ccc(Cl)c(Cl)c2)cc1C	i	0.97	0.9	106	1	x	x
Cc1c(NC(=O)C23CC4CC(CC(C)(C4)C2)C3)c(=O)n(-c2ccccc2)n1C	i	0.9	-2.5	92	4	19	98
CC(=O)NCC(=O)N1CCCC(C(=O)c2ccc3c4c(cccc24)CC3)C1 (configuration not stated)	i	0.91	x	108	7	-33	75
CCOC(=O)c1ccc(NS(=O)(=O)c2ccc3c(c2)oc(=O)n3C)cc1	i	1.2	-4.2	108	-19	x	x
O=C(NC(=C(Cl)Cl)S(=O)(=O)c1ccc(Cl)cc1)c1ccccc1	i	0.84	x	114	x	x	x
Cc1noc(C)c1COc1cccc(C(=O)N2CCN(C/C=C/c3ccccc3)CC2)c1	i	1.1	-1.0	103	-11	9	136
COc1cc(NC(=O)CC(C)C)ccc1NC(=O)c1ccco1	i	1.2	-1.9	x	-2	0	206
Nc1cccc(C(=O)Nc2ccccc2Cl)c1	i	1.1	-1.0	100	-13	25	124
CCn1c(C)nc2cc(C(=O)N/N=C(\C)c3ccc(OC)cc3O)ccc21	i	0.97	x	89	-2	x	x
Cc1nc2sc(C(c3cccc(F)c3)N3CCC(C)CC3)c(O)n2n1 (configuration not stated)	i	1	-2.0	110	12	-140	126
Cc1ccc2c(c1)N=C(c1ccc(Cl)cc1)CO2	i	0.83	-1.4	42	5	-379	74
COc1ccc(Cc2[nH]n3c(=O)cc(C(C)C)nc3c2-c2ccccc2)cc1	i	0.7	x	100	-2	-49	99
O=C(O)Cc1csc(-c2ccc(F)cc2)n1	i	0.97	x	105	-1	x	x
CCN(CC)CCNC(=O)Cc1c(C(=O)O)n(C)c2ccccc12	i	0.99	-2.2	106	-10	x	x
O=C(NCc1ccc2c(c1)OCO2)c1cc([N+](=O)[O-])ccc1N1CCCCC1	i	0.83	-0.7	101	-12	-144	46
COc1cccc(C2[C@H](C)C3(CCN2C)OCCO3)c1 (some centres not stated)	i	0.98	-1.2	103	-3	15	131
CC(C)(C)c1cc(N/C=C\c2nnnn2-c2ccc(Br)cc2)no1	i	0.8	-2.6	106	-12	-6	125
